Screening results deposited in PubChem BioAssay by National Center for Advancing Translational Sciences (NCATS).
miR-21 FLuc – miR-21 reporter, rising signal. HeLa miR-21 FLuc reporter, luciferase, 48 h. Potency, µM (titrated, usually from 38.3 µM), for the others: at the highest dose reporter change, positive = more light. 340,000 tested, under 10 active; active = well fitted rising curve with a large enough effect; inconclusive = small, poorly fitted or top-dose-only effect; inactive = no such curve, though single readings can be large or run the other way;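 note: % of control where 0% means no effect; miR-21 action dims this reporter so a rising signal means less miR-21 action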
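Compounds were titrated across several concentrations (up to approximately 40 uM) and incubated 48 hours with HeLa miR-21-FLuc reporter cells (miR-21 target sequence downstream of FLuc, endogenous miR-21). Readout was firefly luciferase luminescence after lytic detection reagent.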
GLA inh pH 4.5 – inhibitors of human alpha-galactosidase A at pH 4.5; purified enzyme, 4-MU-alpha-Gal fluorescence, pH 4.5; 230,000 tested, under 10 active; activity change, negative = inhibition, % at 105 µM; inconclusive = small, poorly fitted or top-dose-only inhibition, or a rising curve; inactive = flat fitted curve, though single readings scatter; no compound was filed as active;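 note: 0% = full activity with enzyme and -100% = basal without enzyme; dose as in the result columns while the protocol names 77 µM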
Target sequence (P06280 whole entry, looked up): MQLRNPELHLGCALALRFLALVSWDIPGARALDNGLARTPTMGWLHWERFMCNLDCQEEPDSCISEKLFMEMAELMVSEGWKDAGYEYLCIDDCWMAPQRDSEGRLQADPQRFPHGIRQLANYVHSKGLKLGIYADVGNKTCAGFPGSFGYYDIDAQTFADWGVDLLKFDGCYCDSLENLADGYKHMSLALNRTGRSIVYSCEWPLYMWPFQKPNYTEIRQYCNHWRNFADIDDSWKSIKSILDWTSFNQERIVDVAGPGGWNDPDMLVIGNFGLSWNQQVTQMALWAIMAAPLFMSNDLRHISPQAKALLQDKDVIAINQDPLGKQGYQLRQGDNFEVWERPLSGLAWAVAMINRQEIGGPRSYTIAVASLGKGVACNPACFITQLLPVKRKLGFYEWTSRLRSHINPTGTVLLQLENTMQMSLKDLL
Rango dissoc inh – inhibition of RanGTP-driven Rango-importin beta dissociation; O95149+P62826; Potency, µM (highest dose often 46.1 µM), for the others: at the highest dose activity change, negative = inhibition; AID 540253; Biochemical FRET Rango-importin beta, RanGTP-induced dissociation; actives 0.071% (n = 340,000); active means falling FRET ratio curve, often poorly fitted, with flat reads before Ran was added; inconclusive means other falling curves, or compound fluorescence or quenching; inactive means flat or rising ratio curve;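 note: potency is the fitted concentration of half-maximal effect; % of control where 0% means no effect; nearly all actives have a fitted effect of over 45% in size; -100% = wells without RanGTP and RCC1; the record marks most hits as doubtful in a second field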
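Quantitative HTS using a FRET biosensor: 0.1 uM Rango, 0.25 uM importin beta, 0.6 uM Ran, 2 mM GTP, 0.2 uM RCC1 final, PBS with DTT, Tween-20 and BSA. Post-read taken 45 min after Ran addition.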
Rango-impB inh – Rango-importin beta binding inhibition; AID 540263; Rango CFP/YFP FRET sensor + importin beta, 45 min; Q14974; actives 0.031% (n = 340,000); Potency, µM (top dose mostly 92.2 µM), without a hit: at the top dose inhibition of complex formation; active = rising FRET ratio curve, often small or poorly fitted; inconclusive = mostly compound fluorescence or quenching in the first reads; inactive = flat curves in all reads;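 note: potency is the fitted concentration of half-maximal effect; 0% = DMSO wells and 100% = buffer wells lacking importin beta; nearly all actives have a fitted effect of over 15% in size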
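FRET biosensor (snurportin 1 IBB flanked by EYFP and cerulean), 50 nM, with compound 5 min, then 0.125 microM importin beta in PBS, 1 mM DTT, 0.02% Tween-20, 0.1% BSA. CFP/YFP ratio read after 45 min at room temperature; pre-read flags interference.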
* hit, by the source's call; ? = inconclusive; / = not tested or not shown; & = joins results of further samples; [ ] = another dose, or the depositor's remark. This is a subset (hit frequency here may not be typical).

Order of results – miR-21 FLuc	GLA inh pH 4.5	Rango dissoc inh	Rango-impB inh
1. O=C(O)CCCCCn1c(SCC(=O)c2ccc(O)c(O)c2)nc2ccsc2c1=O
 : -11%	0	11%	-2.8%
2. CCCCc1c(C)c(C#N)c2nc3ccccc3n2c1NCCN(C)C
 : -16%	/	?	?
3. O=C(CN1C(=O)C2CC=CCC2C1=O)Nc1nc2ccccc2s1 (centres undefined)
 : -10%	-4	7%	2.9%
4. CCC1=C(OC(=O)N(CC)CC)N2C(=O)OC(=NCC3CC3)[C@]2(C)[C@H]2C1=CC[C@H]1C(=O)N(CC(=O)OC)C(=O)[C@H]12
 : 0%	-3&0	0%	-5.8%
5. COc1ccc(C(=O)c2oc3nc(C)cc(C)c3c2N)cc1
 : -12%	-7	?	?
6. Cc1ccc(S(=O)(=O)Nc2ccccc2CNc2c(C)n(C)n(-c3ccccc3)c2=O)cc1
 : 10%	1	4%	?
7. CCCCn1c(N)c(N(C(=O)CSc2nnnn2-c2ccc(C)cc2)C2CCCC2)c(=O)[nH]c1=O
 : /	/	-9%	?
8. Cc1ccc(N(CC(=O)NCc2ccco2)S(=O)(=O)c2ccccc2)cc1
 : 4%	2	0%	-3.1%
9. O=C(N1CCCC1)C12CC3CC(CC(C3)C1)C2
 : -9%	0	15%	-0.1%
10. c1csc(-c2noc(CN3CCOCC3)n2)c1
 : -38%	-6	-6%	-0.5%
11. CCc1cccc(NC(=O)C2CCCN2S(=O)(=O)c2ccc3c(c2)n(C)c(=O)c(=O)n3C)c1 (centres undefined)
 : 1%&1%	-12	8%	1.6%
12. Cc1ccc(NS(=O)(=O)c2ccc(C(=O)NCC(c3ccco3)N3CCCCC3)cc2)cc1 (centres undefined)
 : /	/	6%	-2.9%
13. CCCCNc1nc(-c2ccccc2)nc(-n2ccnc2)n1
 : 4%	-2	13%	3.1%
14. COc1cccc(CNn2cnnc2)c1OCc1ccccc1F
 : -1%	4	-18%	9.2%
15. CCn1ncc(CNC(=O)CCCSc2nc(-c3ccco3)cc(C(F)(F)F)n2)c1C
 : -6%	-5	-2%	1.8%
16. N#Cc1ccsc1NC(=O)CCc1ccccc1
 : -19%	3	3%	-1.6%
17. NC(=O)C1CCN(C(=O)c2cc(S(=O)(=O)N3CCOCC3)ccc2Cl)CC1
 : 0%	-2	1%	0.2%
18. O=C(CNC(=O)N1CC(=O)Nc2ccccc21)Nc1cccc(F)c1
 : -6%	/	-7%	-2.0%
19. COCc1cc(C)nc2oc(C(=O)c3ccccc3)c(N)c12
 : -2%	2	?	?
20. O=C(O)COc1ccc(/C=C/C(=O)c2ccc3ccccc3c2)cc1
 : -19%	/	-15%	?
21. Cc1ccc(OCc2n[nH]c(=S)n2-c2ccc(Cl)cc2)cc1
 : 1%	/	0%	4.2%
22. Cc1ccc(S(=O)(=O)NC2CCOC(C)(C)C2)cc1 (centres undefined)
 : -4%	-4	-2%	5.5%
23. CC1=NN(c2ccc(C(=O)O)cc2)C(=O)/C1=C\c1ccc(OC(=O)c2cccs2)cc1
 : -11%	-12	-4%	0.1%
24. CCOC(=O)N1CCN(C(=O)c2cnc(Nc3ccccc3OC)c3ccccc23)CC1
 : 1%	-10	0%	-2.6%
25. CCCN1CCN(CCCNC(=O)c2ccccc2NC(=O)C2=C(C)OCCS2)CC1
 : -1%	/	-5%	-2.1%
26. COc1cc(/C=C/C(=O)OCC(=O)NCc2cccs2)ccc1OCC#N
 : -2%	-3	5%	-1.8%
27. CCCCN(CCCC)C(=O)c1sc2nc(N3CCOCC3)c3c(c2c1N)CCCC3
 : 1%	6	-1%	-6.5%
28. CC(/C=N/NC(=O)CSc1n[nH]c(=O)[nH]c1=O)=C\c1ccccc1
 : -1%	-11	18%	-2.2%
29. O=C(CN1CSCC1=O)N1CCN(S(=O)(=O)c2ccc(Cl)cc2)CC1
 : /	/	-11%	-1.3%
30. CS(=O)(=O)N(CC(=O)N1CCCCCC1)c1ccc(Br)cc1
 : -2%	0	-6%	-0.2%

From no. 29 up to 30, copied from above:
Order of results – miR-21 FLuc	GLA inh pH 4.5	Rango dissoc inh	Rango-impB inh
29. O=C(CN1CSCC1=O)N1CCN(S(=O)(=O)c2ccc(Cl)cc2)CC1
 : /	/	-11%	-1.3%
30. CS(=O)(=O)N(CC(=O)N1CCCCCC1)c1ccc(Br)cc1
 : -2%	0	-6%	-0.2%

The list continues.
Order of results – miR-21 FLuc	GLA inh pH 4.5	Rango dissoc inh	Rango-impB inh
31. Cc1ccc(CNC(=O)c2ccc3c(=O)[nH]c4c(C(=O)NCC5CCCO5)sc(=S)n4c3c2)cc1 (centres undefined)
 : -1%	-6	1%	5.1%
32. Cc1cc(C(F)(F)F)nc(-n2cc(-c3ccccc3)nn2)n1
 : -8%	-4	-5%	-4.5%
33. O=C(Cc1ccccc1)NN1C(=O)C2C3C=CC([C@@H]2C1=O)C31CC1 (some centres undefined)
 : -3%	1	20%	6.8%
34. Cc1nn(C)c(C)c1CNC(=O)c1cnn2c1NC(c1ccccc1)CC2C(F)(F)F (centres undefined)
 : -12%	-18	-3%	3.0%
35. Cc1nnc(N/N=C/c2ccccn2)[nH]c1=O
 : ?	-4	44%	-3.7%
36. CCOc1ccccc1NC(C)C(=O)Nc1cc(C(F)(F)F)ccc1N1CCOCC1 (centres undefined)
 : -2%	0	10%	0.7%
37. COc1ccc(N(C(=O)c2ccco2)C(C(=O)NC2CCCCC2)c2cccs2)cc1OC (centres undefined)
 : -5%	1	-7%	-0.5%
38. CCOC(=O)c1c(C)n(C)c2ccc(OC)c(NC(=O)CN3CCSCC3)c12
 : 0%	0	-3%	0.4%
39. COc1ccc(COc2ccc(S(=O)(=O)N3CCCC3)cc2C(N)=O)cc1F
 : 1%	/	-2%	-1.0%
40. O=C(OCC(=O)N1CCc2ccccc21)c1ccc[n+]([O-])c1
 : -5%	0	25%	-0.8%
41. Cc1ccc2oc(-c3cccc(NC(=O)Cn4cnc5c(=O)n(C)c(=O)n(C)c54)c3)nc2c1
 : -65%	-6	/	/
42. COc1cccc(N2CCN(C(C)C(=O)NC34CC5CC(CC(C5)C3)C4)CC2)c1 (centres undefined)
 : 0%	/	0%	-2.8%
43. Cc1ccccc1NC(=O)C1c2cccc[n+]2CC(=O)N1Cc1ccc2c(c1)OCO2 (centres undefined)
 : -6%	-1	-20%	0.3%
44. O=C(Cc1ccccc1)NCc1cccnc1
 : -4%	-6	-5%	-2.0%
45. CCOC(=O)c1c(C)[nH]c(C)c1S(=O)(=O)NCC1CCN(Cc2cccc(F)c2)CC1
 : -17%	/	1%	-0.3%
46. C=CCNC(=O)C(=O)c1cccn1-c1ccsc1C(=O)OC
 : -1%	-2	-10%	4.4%
47. CCCCNC(=O)C1c2ccccc2C(=O)N(c2ccc(OC)cc2)C1c1ccc(OC)cc1 (centres undefined)
 : -25%	2	9%	0.3%
48. COC(=O)c1ccc(COc2ccc(C)cc2[N+](=O)[O-])o1
 : -71%	7	1%	1.8%
49. Cc1ccc(NC(=O)Cn2c(=O)n(CCC(=O)NC3CCN(Cc4ccccc4)CC3)c(=O)c3ccccc32)cc1
 : 0%	-10[21.1 µM]	16%	-2.2%
50. O=C(Cc1ccccc1)Nc1cccnc1
 : 3%	0	1%	2.9%
51. C/C(=N\NC(=O)C1(C)CC1(Br)Br)c1ccc([N+](=O)[O-])cc1 (centres undefined)
 : 1%	/	13%	1.8%
52. COc1ccc(C(=O)C2CCCN(Cc3ccc(C#CCCO)cc3)C2)cc1F (centres undefined)
 : 2%	-5	-2%	2.8%
53. O=C(CSc1nccc(=O)[nH]1)Nc1ccc(F)c([N+](=O)[O-])c1
 : -4%	-3	1%	0.3%
54. CC(N)=Nc1ccc([N+](=O)[O-])cc1
 : -2%	-1	0%	0.4%
55. CCOC(=O)CN1C(=O)N[C@@H](c2ccc(Br)cc2)C(C(C)=O)=C1C
 : -3%	-9&-3	/	/
56. CCN(C[C@H]1N[C@@](C)(C(=O)OC)[C@H]2C(=O)N(Cc3ccccc3)C(=O)[C@@H]12)S(=O)(=O)c1ccc(C(C)(C)C)cc1
 : /	/	4%	-1.2%
57. Cc1cc(C)n(CNc2nc(C(F)(F)F)cs2)n1
 : 0%	-1	3%	3.1%
58. CCOc1ccc(S(=O)(=O)Nc2cccc(C(=O)NCCCN3CCOCC3)c2)cc1
 : /	/	1%	2.0%
59. CCCC(=O)OCC(=O)Nc1ccc([N+](=O)[O-])cc1C#N
 : 4%	-4	18%	-1.4%
60. COc1ccc(NCCC#N)cc1
 : -3%	3	-4%	3.1%
61. CCN(CC)CCCCCOc1ccccc1OC
 : -11%	4	-11%	0.9%
62. COc1ccc(C2C=C(c3ccccc3)Nc3nnnn32)cc1 (centres undefined)
 : -31%	-3	?	?
63. C=CCn1c(=O)/c(=C/c2ccsc2)s/c1=C(\C#N)C(=O)NCCN1CCOCC1
 : /	/	0%	0.5%
64. Cc1cc(Nc2c(C)n(C)n(-c3ccccc3)c2=O)c2ccccc2n1
 : -4%	0	7%	0.4%
65. CC(C)(C)NC(=O)C(c1ccncc1)N(Cc1cccs1)C(=O)Cn1nnc(-c2cccs2)n1 (centres undefined)
 : -32%	-2	20%	0.0%
66. COc1ccc(OC)c(/C=C2\SC(N3CCCC(C)C3)=NC2=O)c1 (centres undefined)
 : -19%	/	?	?
67. O=C(NNC(=S)Nc1ccccc1)C1CCCCC1
 : -27%	3	-8%	3.3%
68. CCC(=Nc1ccccc1OC)C1=C(O)CC(c2ccccc2)CC1=O (centres undefined)
 : 3%	-13	2%	-2.2%
69. Cc1cc(NC(=O)CCC(=O)N(CC(=O)NCC2CCCO2)Cc2ccc(F)cc2)no1 (centres undefined)
 : -2%	1	2%	-2.3%
70. CNC(=O)CN(c1cc([N+](=O)[O-])ccc1OC)S(C)(=O)=O
 : 0%	7	11%	-2.8%
71. C=CC1(C)CN(Cc2ccco2)S(=O)(=O)c2c(F)cccc2O1 (centres undefined)
 : /	/	0%	-2.6%
72. COc1ccc(-c2nc3c(-c4ccc(Cl)cc4)cnn3cc2C)cc1F
 : 0%	0	5%	3.2%
73. COC(=O)c1ccn(C(=O)c2ccc(Cl)cc2)n1
 : 0%	10	-20%	?
74. Cc1ccc(C(=O)Nn2cnnc2)cc1Cl
 : -19%	/	1%	0.3%
75. O=C(CC(=O)c1ccccn1)c1ccccc1
 : /	/	-6%	2.1%
76. CCc1cc(=O)oc2cc(C)cc(OC(C)C(=O)NCCCN3CCOCC3)c12 (centres undefined)
 : -4%	/	-3%	0.8%
77. C[C@@H]1CCC2[C@](C)(CO)[C@@H](O)CC[C@]2(C)[C@@]12C[C@](CO)(CC(=O)O)CO2 (some centres undefined)
 : -4%	/	-13%	-0.8%
78. CN1CCN(C2=C(Cl)C(=O)C(c3cnc(N4CCCCC4)s3)=C(Cl)C2=O)CC1
 : -2%	-7	-16%	?
79. Cc1c2cnn(CC(=O)N3CCN(c4ncccn4)CC3)c(=O)c2c(C)n1Cc1ccc(F)cc1
 : 3%	-16	/	/
80. O=C(NC1CCCC1)c1cc(S(=O)(=O)N2CCCC2)ccc1Cl
 : 1%	/	1%	1.9%
81. COc1cc(NC(=O)C(C)Oc2ccccc2)cc(OC)c1 (centres undefined)
 : -3%	0	-7%	1.0%
82. O=C(NCCCN1CCC(Cc2ccccc2)CC1)C1CCN(S(=O)(=O)N2CCC3(CC2)OCCO3)CC1
 : 4%	-3	-3%	2.3%
83. CCc1nnc(NC(=O)CSc2ccc(-c3nc4ccccc4[nH]3)cn2)s1
 : -38%	5	1%	0.9%
84. CC1(C)CC2(CC(c3ccccc3)Oc3cc(O)ccc32)NC(=S)N1 (centres undefined)
 : 13%	-7	6%	-0.3%
85. CCOC(=O)C(=CNc1ccc(OC)cc1[N+](=O)[O-])C(=O)OCC
 : 3%	-1	4%	-1.9%
86. NS(=O)(=O)c1ccc(CCNC(=O)c2ccc(S(=O)(=O)N3CCCCC3)cc2)cc1
 : -8%	5	5%	-2.9%
87. Cc1ccc2nc(SCC(=O)N(C)C3CCS(=O)(=O)C3)[nH]c2c1 (centres undefined)
 : /	/	1%	-1.0%
88. COc1ccc(C(=O)NNC(=O)CSc2nnc(C3CC3)n2C)cc1
 : -3%	/	-19%	?
89. O=C(CCCOc1ccccc1)NC(=S)Nc1ccccc1
 : -6%	7	-2%	1.1%
